Source: PubChem BioAssay (ICCB-Longwood Screening Facility, Harvard Medical School)
AID504770 = growth inhibition of E. coli YBA685, primary screen, V. cholerae RctB inhibitors. E. coli YBA685 rctB-dependent plasmid, OD600 growth, 3 h; stronger effect = lower value. z-score (concentration not given with the values). 0.27% of 130,000 active;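 active = z-score under -2 on both plates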;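 note: wells of about 30 µL received 100 nL stock; score is relative to mean and SD of the test wells; the first replicate is given; strong numbers were not always called active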
Ba CapD inh = Bacillus anthracis CapD inhibitors, primary screen, biochemical, fluorescence intensity; CapD gamma-glutamyltranspeptidase (Bacillus anthracis Ames Ancestor); z-score (no concentration beside the values); 0.23% of 140,000 active; purified CapD enzyme, fluorescence intensity read-out; stronger effect = lower value; some hits fall short of the stated cut;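 active = z-score under -4 in either of two replicates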;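 note: stock transfer was 100 nL into about 40 µL; score is relative to mean and spread of the plate; one replicate is shown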
The depositor's hits bear a star; i = inactive; x = no result given. Rows are unselected; any-hit rate near 0.39%.

# | mol | AID504770 | Ba CapD inh
1 | O=C(c1ccc(COc2ccccc2)o1)N1CCCC(c2nc3ccccc3s2)C1 (stereo not given) | 0 | x
2 | COc1ccc(C2NC(=O)c3[nH]nc(-c4cccc(OC)c4)c32)cc1 (stereo not given) | 0.6 | 0.055
3 | COc1ccc(CCNC(=O)CCC(=O)Nc2nc(-c3cc4ccccc4oc3=O)cs2)cc1OC | x | 0.27
4 | CC1CN(S(=O)(=O)c2cc(C(=O)N3CCNC(=O)C3)ccc2Cl)CC(C)O1 (stereo not given) | -0.5 | x
5 | CN(C)c1ccc(C=Nc2ccc3c(c2)ncn3C(C)(C)C)cc1 | 0.2 | 29.6
6 | Cc1ccnc(NS(=O)(=O)c2ccc(N3C(=O)C4CCCCC4C3=O)cc2)n1 (stereo not given) | x | 0.955
7 | FC(F)(F)c1ccc(Sc2nnc(-c3cccs3)n2CC2CCCO2)nc1 (stereo not given) | 0.5 | x
8 | CC(=O)N1NC(c2ccccc2)CC1c1ccccc1 (stereo not given) | -0.25 | 0.65
9 | O=C(O)c1ccccc1C(=O)N1CCN(C2c3ccccc3-c3ccccc32)CC1 | -0.4 | 0.76
10 | CSCC(=O)NCc1ccc(CN2CCCC2)cc1 | 0.55 | x
11 | CCN(CC)c1ccc2cc(NC(=O)CCC(=O)O)c(=O)oc2c1 | -0.55 | -0.215
12 | Nc1ccccc1C(=O)N1CCNC(=O)C1 | 1.5 | -0.285
13 | Cc1cc2cc(CNC(=O)C3CCCC3)ccc2n1C | 0.45 | -0.1
14 | Cc1onc(-c2ccccc2)c1C(=O)NCC1COc2ccccc2O1 (stereo not given) | 2 | -1.59
15 | COc1ccc2c(c1)CCCN2 | -0.05 | x
16 | O=C1Nc2ccccc2N(O)N1c1ccc(S(=O)(=O)Nc2ccccn2)cc1 | 0.3 | 2.46
17 | CC1CCCC(NS(=O)(=O)c2ccc3[nH]c4c(c3c2)CCCC4)C1C (stereo not given) | -0.15 | -0.225
18 | CC(C)(C)C(=O)Cn1nnc(-c2ccncc2)n1 | -1.35 | 0.08
19 | CC(C)(C)c1ccc(C(=O)N(CCc2ccccc2)C2CCS(=O)(=O)C2)cc1 (stereo not given) | x | -0.37
20 | O=C(Oc1ccc(Br)cc1)c1ccco1 | -0.5 | 0.43
21 | C1CCC(N2CCC(N3CCOCC3)CC2)CC1 | -0.65 | -0.14
22 | COCCNC(=O)CN1CCC(c2nc3ccccc3s2)CC1 | 0.8 | x
23 | CC(C)(C)c1ccc(NC(=O)CSc2nnnn2-c2ccccc2)cc1 | 0 | 0
24 | NS(=O)(=O)c1ccc(CCNc2ncnc3c2cnn3-c2ccc(F)cc2)cc1 | 0.2 | -1.13

Five compounds picked at random from those above:
# | mol | AID504770 | Ba CapD inh
14 | Cc1onc(-c2ccccc2)c1C(=O)NCC1COc2ccccc2O1 (stereo not given) | 2 | -1.59
20 | O=C(Oc1ccc(Br)cc1)c1ccco1 | -0.5 | 0.43
19 | CC(C)(C)c1ccc(C(=O)N(CCc2ccccc2)C2CCS(=O)(=O)C2)cc1 (stereo not given) | x | -0.37
24 | NS(=O)(=O)c1ccc(CCNc2ncnc3c2cnn3-c2ccc(F)cc2)cc1 | 0.2 | -1.13
18 | CC(C)(C)C(=O)Cn1nnc(-c2ccncc2)n1 | -1.35 | 0.08

Continuation.
# | mol | AID504770 | Ba CapD inh
25 | CN1c2ccccc2Oc2nnc(N3CCN(Cc4ccccc4)CC3)cc21 | -0.75 | x
26 | CCOC(=O)c1c(C)oc2ccc(OC(=O)c3ccco3)cc12 | -0.7 | i
27 | c1ccc(-c2nnc(COc3ccc4ccccc4c3)o2)cc1 | -0.15 | -0.5
28 | CN(c1ccc(Br)cc1)c1ncnc2c1nc1n2CCCCC1 | -0.5 | -0.115
29 | CC1=C(C(=O)OCc2ccc(C)cc2)C(c2cc3c(cc2Br)OCO3)CC(=O)N1 (stereo not given) | -0.05 | -0.09
30 | CN(Cc1ccccc1)C(=O)C1CCCN1S(=O)(=O)c1cccc2nsnc12 (stereo not given) | 0.1 | -0.095
31 | CC(Sc1nc(N)cc(=O)[nH]1)C(=O)Nc1ccc(S(N)(=O)=O)cc1 (stereo not given) | -0.45 | 0.34
32 | CSc1ncc(C#N)c2nc(-c3ccc(N(C)C)cc3)nn12 | x | 0.69
33 | COc1ccc(NC(=O)CN2C(=O)CSCC2=O)cc1 | -0.75 | x
34 | O=C(NCc1cccc(Cl)c1)c1ccc(-c2csnn2)cc1 | -2.8 | -0.455
35 | O=C(O)c1ccccc1C1SCC(=O)N1NC(=S)Nc1ccccc1 (stereo not given) | 2.4 | -2.38
36 | Cc1nc(SCC(=O)Nc2sc3c(c2C(N)=O)CCC3)c2c3c(sc2n1)CCC3 | x | -0.35
37 | O=C(Nc1csc(Cc2c(Cl)cccc2Cl)n1)NN1CCOCC1 | 0.5 | 9.61
38 | COc1ccc(-c2cc3c(S(=O)(=O)c4ccccc4)cc(NC(C)=O)cc3n2C)cc1 | 0.95 | 52.1
39 | CCN(C(=O)c1cc2c(s1)-c1ccccc1SC2)c1ccccc1 | 1.05 | -0.28
40 | CCOC(=O)C(NC(=O)c1ccc(F)cc1)(Nc1sc2c(c1C#N)CCCC2)C(F)(F)F (stereo not given) | x | -0.315
41 | O=C(COC(=O)c1cc(-c2ccccc2)nc2ccccc12)NC1CC1 | -0.2 | 29.8
42 | COc1ccc(OC)c(NC(=O)c2ccc3c(=O)n(Cc4cccc(Br)c4)c(=S)[nH]c3c2)c1 | x | -0.85
43 | Cn1c(CN2CCCC2)nc2cc(NS(=O)(=O)c3ccc(F)cc3)ccc21 | 0.9 | 0.785
44 | Cc1ccc(-c2n[nH]c3c2C(c2ccccc2Cl)N(c2ccc(F)cc2)C3=O)cc1 (stereo not given) | x | 0.01
45 | CCOc1ccccc1N1CCN(C(=O)c2ccc3c(c2)S(=O)(=O)N=C2CCCCCN23)CC1 | -1 | x
46 | CCOC(=O)c1cccc2ncccc12 | 0.75 | x
47 | NS(=O)(=O)c1ccc(NC(=O)c2ccc3c(Cl)c4c(nc3c2)CCCC4)cc1 | -0.25 | 0.295
48 | Nc1ccccc1SCc1cn2ccccc2n1 | -0.7 | 0.695
49 | COc1cccc2cc(-c3nc(-c4cccs4)cs3)c(=O)oc12 | x | -0.85
50 | CCN(CC)C(=O)NCc1ccc(OC)cc1 | -0.75 | -0.195
51 | O=C(c1oc2ccccc2c1-n1cccc1)C1CC1 | 1.35 | -0.175
52 | c1coc(-c2nc(-c3cccs3)no2)c1 | 1.75 | 0.195
53 | O=C1CC(C(=O)N2CCc3ccccc32)CN1c1ccccc1 (stereo not given) | -0.2 | x
54 | COc1ccc(C(=O)CC(C#Cc2ccccc2)CC(=O)c2ccc(OC)cc2)cc1 | -0.05 | 0.13
55 | O=C(O)CN(CC(=O)O)S(=O)(=O)c1ccccc1 | 0.15 | -0.195
56 | O=C(CCCSc1nc2ccccc2[nH]1)N1CCN(CC(=O)N2CCCC2)CC1 | 1.25 | x
57 | O=C1c2ccccc2NC2(CCCCC2)N1Cc1ccco1 | 2.3 | x
58 | CC1=NN(C(=O)c2ccccc2Cl)C(O)(c2ccc(Cl)cc2)C1 (stereo not given) | x | -0.065
59 | CNC(=O)CNC(=O)Nc1ccc(Cl)c(Cl)c1 | 1.25 | x
60 | COc1ccc(C(=O)OC2CCCCC2CN(C)C)cc1 (stereo not given) | 1.4 | -0.115

Whole records, quoted from the list. Order of screens: AID504770 | Ba CapD inh
`COc1ccc(C(=O)OC2CCCCC2CN(C)C)cc1` (stereo not given) reads 1.4 | -0.115
`O=C(O)CN(CC(=O)O)S(=O)(=O)c1ccccc1` reads 0.15 | -0.195

(listing goes on)
# | mol | AID504770 | Ba CapD inh
61 | CN(C)CCCCCCOC(=O)Nc1cc(C(C)(C)C)ccc1O | x | 0.69
62 | CN(CCC#N)c1ccc(/C=C(\C#N)C(=O)C(C)(C)C)cc1 | -0.75 | x
63 | S=c1nc[nH]c2c1[nH]c1ccccc12 | 0.95 | x
64 | CSc1ccccc1NC1=NCCC1 | -0.6 | x
65 | Clc1cccc(Cn2c(-c3cccnc3Cl)nc3ccccc32)c1 | x | -0.51
66 | COc1ccc(S(=O)(=O)N2CCN(c3cccc4[nH]ccc34)CC2)cc1OC | -0.5 | 0.035
67 | c1ccc2oc(CCCc3nc4ccccc4o3)nc2c1 | 1.65 | -0.845
68 | Cc1nc(-c2ccc(N=Cc3cc(Br)ccc3O)cc2)cs1 | -0.4 | -0.16
69 | O=c1[nH]c2c(c(=O)n1Cc1ccccc1)CCC2 | 0.55 | 0.55
70 | CO/N=C(/CS(=O)(=O)Cc1ccc(Cl)cc1)c1ccc(Cl)cc1 | x | 0.35
71 | CN(CC(=O)NC1CCCC1)S(=O)(=O)c1cnc[nH]1 | -0.3 | -0.145
72 | Cn1nc(-c2ccc(-c3ccn(S(C)(=O)=O)n3)s2)cc1C(F)(F)F | -0.15 | 46.5
73 | Cc1ccc(NC(=O)CSCc2ccc(C#N)cc2)cc1 | -0.15 | 0.97
74 | CCCC(=O)Nc1cccn(Cc2ccccc2Br)c1=O | 0.85 | x
75 | CC(C)c1nc2ccccc2c2c1C(=O)N(CC1CCCO1)C2=O (stereo not given) | x | 0.38
76 | c1cc(-c2[nH]ncc2-c2cnccn2)ccn1 | x | 1.11
77 | O=C(Cc1cccs1)Nc1ccc(-c2nnc(-c3ccccc3)o2)cc1 | -0.45 | 24.7
78 | CCC(NS(=O)(=O)c1ccc(OC)cc1)C(=O)NCc1ccccc1OC (stereo not given) | -0.2 | 0.435
79 | Nc1ncnc2c1ncn2CCN1CCCCC1 | -0.7 | 0.22
80 | CCc1[nH]c(C(=O)O)c(C)c1C(=O)OC | 0.45 | x
81 | Nc1nc(SCc2cnc(-c3ccccc3)o2)nc2nc[nH]c12 | 0.5 | 0.405
82 | O=C(/C=C/c1ccco1)N1CCCSC1=Nc1ccccc1 | 0.35 | x
83 | CC(=O)Nc1ccc(S(=O)(=O)N2CCC(NC(=O)Nc3cccc(F)c3)CC2)cc1 | 0.35 | x
84 | CC(C)(C)c1nc(-c2ccc(C(F)(F)F)cc2)c2c(C(F)(F)F)cccc2n1 | x | 0.65
85 | CN(C)c1ccc(/C=N/c2nc3ccccc3o2)cc1 | 0.35 | x
86 | O=C(CSc1nc2ccccc2[nH]1)Nc1ccccc1F | -0.1 | 0.48
87 | COc1ccc(-n2nnnc2-c2nc3ccccc3s2)cc1 | 0.35 | 0.745
88 | CCCN(CCC)C(=O)c1cnn(-c2ccc(C)c(C)c2)c1NC(C)=O | -0.4 | -0.015
89 | O=C(Nc1ccccc1Cl)c1cc2c(s1)CCC2 | -1.5 | 0.03
90 | O=C(c1cc2c(Cl)ccc3c2n1CCO3)N1CCC(N2CCCCC2)CC1 | -1.2 | 1.34
91 | COc1ccccc1N(Cc1csc(-c2ccccc2)n1)S(=O)(=O)c1cccs1 | 1.35 | x
92 | Cc1onc(-c2ccccc2)c1C(=O)n1cccc1 | 2.75 | -0.06
93 | COc1cccc(OC)c1C(=O)O/N=C(\N)c1cccc(C)c1 | -0.4 | 0.385
94 | O=C1OC(COc2ccccc2)CN1c1ccccc1 (stereo not given) | 0.35 | 0.595
95 | COC(=O)c1ccc(C2N=C(c3ccccc3C)NO2)cc1 (stereo not given) | -0.7 | x
96 | Cc1ccsc1/C=C1/N=C(c2ccccc2)OC1=O | 1.2 | 0.36
97 | CCN(CC)C(=O)n1c(Cc2ccccc2)nc2ccccc21 | -0.5 | x
98 | N#Cc1ccc(-n2cnc3ccccc3c2=O)cc1C#N | -0.85 | -0.33
99 | Nc1cccnc1N1CCN(c2ncc(C(F)(F)F)cc2Cl)CC1 | x | -0.245
100 | O=c1c(Cl)c(N2CCN(c3ccccc3)CC2)cnn1-c1ccccc1 | 0.65 | -0.785
101 | CCOCCOC(=O)C1=C(C)NC2=C(C(=O)CC(c3ccc(OC)cc3)C2)C1c1ccc(OC)c(Br)c1 (stereo not given) | x | 50.6
102 | CC1CCCN(S(=O)(=O)c2ccc3ccccc3c2)C1 (stereo not given) | -0.4 | x
103 | CCc1c(O)nc2ccccn2c1=O | -0.25 | -0.47
104 | CCCCCc1nnc2n1N=C(c1ccc(Cl)cc1)CS2 | x | 8.6
105 | CC1CC(=O)N(c2cc(C(F)(F)F)cc(C(F)(F)F)c2)C1=O (stereo not given) | -0.35 | -0.71
106 | Fc1ccc(CNc2nc3c(c(C(F)(F)F)n2)CCCCC3)cc1 | -0.15 | 10.6
107 | CC1CN(CN2C(=O)C(=Nc3ccc4ccccc4c3)c3ccccc32)CC(C)O1 (stereo not given) | -0.6 | 5.78
108 | COC(=O)c1cc(Cl)c(C(=O)OC)cc1Cl | -0.8 | -0.8
109 | COC(=O)c1cc(-c2ccccc2)sc1NC(=S)Nc1ccn(C)n1 | -0.1 | -0.43
110 | Cc1ccc(Oc2cccc(/C=N/NC(=O)c3cc(C4CC4)nc4ccccc34)c2)cc1 | x | 1
111 | CCCc1ccc(O)c(N)c1 | -1.05 | -0.38
112 | Cn1c(SCC(=O)c2ccc(F)cc2)nnc1-c1ccco1 | -0.75 | 0.44
113 | CCc1nn2c(=O)cc(COc3ccccc3C)nc2s1 | -0.2 | 1.54
114 | CN(C)/C=N/n1cnc2sc3c(c2c1=O)CCCC3 | -0.75 | 0.16
115 | COc1ccc(N2CCN(C=C3C(=O)NC(=O)NC3=O)CC2)cc1 | -0.05 | x
116 | CCCCCOC(=O)c1c(C)oc2ccc(NS(=O)(=O)c3ccc4c5c(cccc35)C(=O)N4)cc12 | x | 0.1
117 | CCOC(=O)Cc1c(C)nc2c(-c3ccccc3)c(C(F)(F)F)nn2c1C | -0.1 | -0.145
118 | O=c1c(Oc2ccccc2)coc2cc(O)ccc12 | -1.55 | 4.88
119 | CN1CCN(C(=S)C(=O)NCc2ccccc2)CC1 | 0.8 | -0.375
120 | CC1(C)Cn2c(nnc2-c2ccccc2)S1 | -0.9 | 0.23
121 | CCCNC(=O)C1CCN(C(=O)c2ccccc2Cl)CC1 | -0.3 | 0.515
122 | CCSc1nc(C)c(CC)c(C)c1C(N)=O | 2.05 | -0.155
